B2AR ag: beta2AR agonists driving receptor internalization, primary screen, cell-based, FAP fluorogen, flow cytometry | response, % (test concentration not listed) | AID 504454, 2011 | Beta-2 adrenergic receptor (Homo sapiens), P07550 | Am2.2-beta2AR cells; reference of the scale not given here | hit rate 0.43% among 340,000;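 active = response above a set limit, near 3 SD of response in nonfluorescent compounds, cut at about 42% in these data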;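 note: stock transfer was 100 nL into about 11 µL; a reference agonist was the positive control; negative values mostly stem from fluorescent compounds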
Target sequence (P07550 whole entry, looked up): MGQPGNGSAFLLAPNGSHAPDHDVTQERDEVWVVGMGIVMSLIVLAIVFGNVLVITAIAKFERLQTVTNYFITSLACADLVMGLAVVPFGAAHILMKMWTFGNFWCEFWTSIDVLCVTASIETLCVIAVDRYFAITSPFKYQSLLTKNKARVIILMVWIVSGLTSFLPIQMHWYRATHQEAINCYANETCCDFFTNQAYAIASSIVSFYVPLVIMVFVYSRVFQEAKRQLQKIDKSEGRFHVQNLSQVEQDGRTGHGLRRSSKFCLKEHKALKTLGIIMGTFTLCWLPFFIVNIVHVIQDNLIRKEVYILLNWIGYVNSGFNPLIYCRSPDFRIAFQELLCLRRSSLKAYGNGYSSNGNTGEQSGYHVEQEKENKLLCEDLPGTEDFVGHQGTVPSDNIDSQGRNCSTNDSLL
Calb FLC: C. albicans growth inhibition with fluconazole, primary screen, CaCi-2 strain, Alamar Blue fluorescence; C. albicans CaCi-2 (fluconazole-resistant clinical isolate) + fluconazole, 48 h; growth inhibition, % (test concentration not listed); hit rate 0.57% among 300,000;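 active = most replicates above 75%; inconclusive = exactly half above 75%; inactive = most below 75%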;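 note: all wells also contain fluconazole at 8 µg/ml as a sub-toxic cotreatment; 0% = median of DMSO wells and 100% = median of geldanamycin control wells; wells of about 8 µL received 7.5 nL stock; the first replicate is given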
Ecoli rRNA inh: reduced GFP signal of wild-type E. coli, primary screen, bacterial rRNA inhibitor project, GFP/RFP fluorescence, OD600, single point; E. coli WT GFP vs humanized-ribosome RFP mutants, 24 h; stronger effect = lower value; DMSO median 0, no signal -100; hit rate 1.6% among 350,000; GFP signal change (wild-type ribosome), % (concentration not given with the values);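 active = significant combined selectivity score with lowered wild-type GFP, culture density cut under 30%, mutant RFP and density less affected; inactive = any of these conditions unmet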; note: one replicate is shown; some compounds called inactive have numbers as strong as hits
ALR inh: inhibitors of human ALR sulfhydryl oxidase, primary screen, biochemical, H2O2 detection, HRP-luminol luminescence, single point; purified ALR, DTT oxidation; inhibition, % (concentration not given with the values); hit rate 3.8% among 290,000;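 active = mean and each replicate at 75% or more; inconclusive = only one of the two met; inactive = neither met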;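 note: stock transfer was 7.5 nL into about 7.5 µL; 0% = neutral wells and 100% = wells with inactivated enzyme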
Target sequence (P55789 whole entry, looked up): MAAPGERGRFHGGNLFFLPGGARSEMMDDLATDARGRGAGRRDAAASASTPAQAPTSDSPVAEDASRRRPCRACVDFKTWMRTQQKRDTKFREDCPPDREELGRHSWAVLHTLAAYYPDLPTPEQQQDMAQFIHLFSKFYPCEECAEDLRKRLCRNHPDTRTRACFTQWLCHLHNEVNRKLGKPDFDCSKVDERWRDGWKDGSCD
LANA-H2B inh: blockers of LANA interaction with H2A/H2B – biochemical, FP readout, HTS, primary screen | cell-free LANA-H2A/H2B peptide, fluorescence polarization | inhibition, % (test concentration not listed) | AID 2629, 2010 | hit rate 0.6% among 320,000; in the data active = inhibition mostly above about 10%, no sharp cut-off; inactive = mostly below about 6.7%;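 note: stock transfer was 7.5 nL into about 10 µL; 0% = median of vehicle wells and 100% = median of positive control wells; one replicate is shown; the record names a cut of 25% in any replicate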
A1 inh: caspase 3/7 activation in MEF A1-2A-BIM cells, primary screen, A1 inhibitor project, cell-based, luminescence, HTS; Caspase-Glo 3/7 luminescence, 3 h; percent of clofoctol response, vehicle zero; caspase activation, % (concentration not given with the values); hit rate 0.066% among 330,000;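 active = over half of replicate activation scores above 10%, or exactly half above 10 with the replicate mean above 10; inconclusive = replicate mean below 10 yet half the replicates above 10; inactive = over half of replicates below 10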;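 note: wells of about 30 µL received 50 nL stock; many hits fall short of the cut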
Beta cell apopt: inhibitors of cytokine-induced beta cell apoptosis, primary screen, luminescence; AID 435005, 2010; protection from apoptosis, % (no concentration beside the values); hit rate 0.8% among 300,000; INS-1E cytokine-induced death, ATP luminescence, 48 h; percent of positive-control rescue, neutral wells zero;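 active = all replicates at 75% or more, or half of them and the mean; inconclusive = half reach 75% but not the mean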;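 note: 0% = cytokine-treated negative control wells and 100% = positive control rescue; higher means more ATP so stronger rescue from cytokine killing; wells of about 40 µL received 100 nL stock; the first replicate is given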
T cruzi repl: inhibitors of intracellular T. cruzi growth, primary screen, luminescence, NIH3T3 host cells; T. cruzi beta-gal in NIH3T3, 90 h; inhibition, % (concentration not given with the values); hit rate 1.4% among 300,000; AID 1885, 2009;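 active = mean inhibition across valid replicates above about 55%, limit read from the data; inconclusive = mean below that limit but half or more replicates reach it; inactive = mean below it, under half of replicates reach it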;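 note: signal also drops with host cell toxicity which is not excluded here; 0% = plate median of DMSO wells and 100% = zero luminescence signal; higher percent means less beta-gal luminescence so fewer parasites; stock transfer was 50 nL into about 50 µL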
Ecoli rRNA inh OD600: further read-out of Ecoli rRNA inh, marked with its call; OD600 change, %; measured here: OD600 growth;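 optical density of the mix in the first replicate; 0 = DMSO median and -100 = no signal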
Ecoli rRNA inh RFP: second read-out of Ecoli rRNA inh, no call of its own (marks repeat the call); RFP signal change, %; measured here: RFP humanized mutant strains;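 first replicate; 0 = DMSO median and -100 = no signal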
Starred values were filed as active, the others as inactive; ? = inconclusive; nt = not tested or not shown. An excerpt; the hit share may differ from the screen's.

SMILES	B2AR ag	Calb FLC	Ecoli rRNA inh	Ecoli rRNA inh OD600	Ecoli rRNA inh RFP	ALR inh	LANA-H2B inh	A1 inh	Beta cell apopt	T cruzi repl
CCOc1ccccc1NC(=O)NCc1ccc2c(c1)OCO2	-14	-12	2	-10	1.5	-2	0.3	0.6	2	-3
Cc1ccc(S(=O)(=O)N2CCOCC2)cc1C(=O)NCc1cn2ccsc2n1	-13	-5	nt	nt	nt	-2	-3.3	-0.3	-4	-3
COc1cc(NC(=S)NCc2cccs2)cc(OC)c1	-6	10	nt	nt	nt	-33	1.1	-0.3	nt	1
CCC(C)/C=C/C1=CC2=C(Cl)C(=O)C3(C)OC(=O)C(C(=O)C(C)C(C)O)C3C2=CO1 (configuration not stated)	0	17	nt	nt	nt	-15	2.6	1.5	-4	0
CCOC(=O)c1sc2nccc(N(C)C)c2c1N=CNOCc1c(F)cccc1Cl	2	-1	nt	nt	nt	-10	-3.6	0.3	nt	70*
CCn1c(SCC(=O)NCc2ccco2)nc2c(c1=O)SC(C)C2 (configuration not stated)	2	-11	nt	nt	nt	39	2.5	-0.9	nt	15
CC(=O)NCCOC(=O)Nc1cccnc1	3	8	nt	nt	nt	-4	-0.2	-0.4	1	8
O=C(Cc1ccccc1[N+](=O)[O-])Nc1ccc(S(=O)(=O)N2CCCC2)cc1	0	-22	-1	7	1.5	-23	3.6	0.2	nt	-3
COc1c(F)c(F)c(C(=O)Nc2ccc3oc(-c4ccncc4)nc3c2)c(F)c1F	-1	2	nt	nt	nt	nt	11	-1.4	0	18
CCOc1ccccc1NC(=O)CN(c1nccs1)S(=O)(=O)c1ccc(N)cc1	26	2	nt	nt	nt	-3	3.4	-0.2	-3	-5
CN(C(=O)c1ccc(NC(=O)Cc2ccc(NC(=O)C3CCN(C(=O)C4CCCCC4)CC3)cc2)cc1)C1CC1	1	nt	-1	-3	-1.5	0	1.8	-1.2	4	nt
C#CCOc1ccccc1/C=N/NC(=O)c1ccccc1OCc1ccccc1	11	-4	-8	-13	2.8	-2	3.8	0.3	2	35
CC(C)C[C@H](NC(=O)OC(C)(C)C)c1n[nH]c(=S)n1N	0	0	nt	nt	nt	-83	2.2	-0.8	-2	-7
CC(NCc1ccco1)C(=O)N1CCc2ccccc2C1 (configuration not stated)	-3	10	6	2	1.3	2	-1.1	0.5	nt	-20
COc1ccc(CC2=C(O)c3ccccc3C(=O)C2=O)cc1	-6	69	-23	-25	-3.6	-10	-1.0	-0.6	-3	7
O=C(CCc1nnc(C2CCCCC2)o1)N1CCN(Cc2ccccc2)CC1	-8	9	6	6	2.3	-4	7.1	-0.7	nt	-3
CC1Cc2cc(S(=O)(=O)N3CCC(C(=O)N4CCN(c5ccccc5F)CC4)CC3)ccc2N1C(=O)C1CC1 (configuration not stated)	-10	-3	-7	-9	-0.3	-2	1.7	-0.1	75*	5
COc1cc(C)c(CN2CCN(C(C)C(=O)NC(C)c3ccccc3)CC2)cc1OC (configuration not stated)	-3	-14	9	17	1.7	6	2.2	-1.1	-3	22
CN1CCc2nc3sc(C(=O)C45CC6CC(CC(C6)C4)C5)c(N)c3cc2C1	9	nt	nt	nt	nt	-5	-0.7	0.3	8	nt
COc1ccc2cc(-c3ccccc3)ncc2c1	16	-4	16	12	-1.8	-1	-0.1	-5.9	5	10
COCc1ccc(C(=O)N(C)CC2CCCN(CCc3ccc(OC)cc3)C2)o1 (configuration not stated)	-7	-5	3	13	-3.7	-2	0.5	-2.1	-5	38
Cc1cccc(NC(=O)c2cc(N3CCOCC3)nc3ccccc23)c1	-3	0	nt	nt	nt	2	-1.5	-0.1	-4	2
Cc1cccc(NC(=O)CN(CC2CCCO2)C(=O)c2cc(S(=O)(=O)N(C)C)ccc2F)c1C (configuration not stated)	-3	nt	-3	-1	-1.7	0	-0.8	1.2	-2	nt
Cc1ccn(CCC(=O)Nc2ccc3c(c2)OCO3)n1	0	0	5	5	-0.1	-8	2.8	-1.3	-7	-7
O=C(Nc1ccccc1)N1CCN(c2ccc(F)cc2)CC1	-3	6	nt	nt	nt	45	2.1	0.5	4	1
O=C(COc1ccc(Br)cc1)c1ccc2c(c1)CCCC2	0	-13	nt	nt	nt	-5	1.2	-0.6	-2	1
NC(=O)c1ccccc1NCC(=O)c1ccc(F)cc1	0	1	4	7	3.3	-7	-8.7	0.6	-6	-3
Cc1ccc(NC(=O)c2ccc(S(=O)(=O)N3CCOCC3)cc2)c(C)c1	5	20	1	2	-0.9	-3	2.3	0.5	-2	-12
NS(=O)(=O)c1ccc(NC(=O)COC(=O)c2cnc(Cl)c(Cl)c2)cc1	25	2	3	0	-4.2	-3	4.9	-0.2	5	-4
Cc1nn(Cc2ccccc2)c2c1C(c1cccc(Cl)c1)C(C#N)=C(N)O2 (configuration not stated)	19	5	nt	nt	nt	23	2.0	0.1	0	-12
Cn1nc(C(F)(F)F)cc1C(=O)NC1CCCCCC1	-8	-2	nt	nt	nt	27	4.3	2.0	3	-7
O=C(COC(=O)c1ccc(O)cc1)Nc1ccc(Cl)cc1	nt	-20	-25	-22	-0.8	-2	1.2	0.4	-3	11
CCOc1ccc(-c2c(C(=O)N/N=C/c3ccc(C)s3)nnn2-c2nonc2N)cc1	14	9	nt	nt	nt	0	1.9	1.4	2	-1
CC(=O)c1cc2c(cc1NC(=O)c1ccc(Cl)cc1)OCCO2	8	5	-1	6	-0.1	6	2.5	-0.9	nt	8
O=C(Nc1ccc2c(c1)OCCO2)c1ccc(Cl)cc1Cl	2	-2	-6	0	-1.6	1	1.6	-3.2	nt	-4
CS(=O)(=O)N(CC(=O)NCc1ccccn1)Cc1ccc(Cl)cc1	-1	-10	nt	nt	nt	99*	-4.1	-0.6	2	0
O=[N+]([O-])c1ccc2nc(NS(=O)(=O)c3ccc(F)cc3)sc2c1	4	5	-16	-27	4.4	-3	-0.1	-0.4	-4	-17
Cc1ccc([N+](=O)[O-])cc1-c1ccc(/C=N\n2nnnc2N)o1	3	3	13	7	-2.0	-6	3.3	1.0	-6	-11
COC(=O)c1ccc(NC(=O)C(=O)NCC2CCCO2)cc1 (configuration not stated)	-2	-3	12	9	4.3	0	2.6	1.6	-6	-22
CC(C)(C)C1CCC(OC(=O)CN2CCCCC2)CC1 (configuration not stated)	-4	7	3	4	3.2	-2	0.8	0.7	7	-9
CC(C)NS(=O)(=O)c1ccc(OCC(=O)Nc2ccc(F)cc2)cc1	5	?	-5	1	1.2	0	1.4	0.4	-7	-1
CCN(Cc1ccccc1)C(c1cccs1)c1nnnn1C1CCCCC1 (configuration not stated)	2	1	nt	nt	nt	2	2.5	-0.4	101*	56*
COC(=O)c1c(NC(=O)CN2CCCC(C)C2)c2c(C)cccc2n1C (configuration not stated)	-4	7	nt	nt	nt	-11	2.4	0.4	-7	6
COc1ccc(CN2CCSCC2)c(C)c1C	0	15	16	8	1.1	5	-5.0	0.5	-12	-8
CC(OC(=O)CN1C(=O)c2ccccc2C1=O)C(=O)NCc1ccccc1 (configuration not stated)	4	0	8	-1	0.5	0	-4.8	0.4	5	-1
CC(=O)C1=C(C)N(Cc2ccco2)C(=O)C1(NC(=O)C1CCCCC1)C(F)(F)F (configuration not stated)	-3	2	nt	nt	nt	25	-1.1	2.3	-6	-18
CCN(CC)CCCNC(=O)C(C)Sc1nc(-c2ccccc2)cc(C(F)(F)F)n1 (configuration not stated)	2	19	6	-1	-2.8	3	0.9	-0.5	-3	13
Cc1cnc(C(=O)OCC(=O)NC(C)CCc2ccccc2)cn1 (configuration not stated)	-237	0	20	16	1.6	0	0.2	0.6	-11	3
CCOc1ncccc1C(=O)NCCc1ccc(S(N)(=O)=O)cc1	1	-3	6	4	-2.7	-13	3.7	0.0	0	1
COc1ccc(S(=O)(=O)N2CCCC(C(=O)NCc3ccccn3)C2)cc1 (configuration not stated)	3	0	nt	nt	nt	-9	-1.6	-0.8	-9	-6
CC(C)CCC(=O)N1CCOC1=O	-4	-9	-1	-1	5.5	0	-5.8	0.3	nt	-6
Cc1ccc(N2C(=O)c3ccc(C(=O)N4CCOCC4)cc3C2=O)cc1C	2	-15	nt	nt	nt	nt	-4.7	0.2	-4	-8
CC1CN(C(NC(=O)C(C)(C)C)C(Cl)(Cl)Cl)CC(C)O1 (configuration not stated)	-4	-7	nt	nt	nt	-12	-5.8	0.0	-2	-8
O=C(Nc1cc(S(=O)(=O)N2CCOCC2)ccc1O)c1ccc(NS(=O)(=O)c2ccc(Cl)s2)cc1	-11	-7	-24	-59	4.5	-1	2.0	0.0	-7	-3
O=C(CSc1nc2ccccc2s1)NCCOc1ccc(Cl)cc1	-8	-8	nt	nt	nt	-10	1.9	-0.7	-7	0
O=C1OC(CCl)CN1Cc1c(Cl)cccc1Cl (configuration not stated)	-5	-1	4	4	-1.0	2	1.7	0.7	4	-2
c1ccc(-c2noc(-c3cccs3)n2)nc1	-19	-7	nt	nt	nt	1	-2.1	-8.2	21	-19
COc1ccc(OCC(O)Cn2c(=N)n(Cc3ccccc3)c3ccccc32)cc1 (configuration not stated)	16	?	nt	nt	nt	-6	-0.3	0.0	28	0
O=C(Nc1cccc(C(F)(F)F)c1)c1cc(-c2ccc(F)cc2)on1	0	-9	nt	nt	nt	-1	1.0	0.6	-8	-3
Cc1cc(Cl)ccc1OCC(=O)OC(C)C(=O)N(C)C (configuration not stated)	4	1	nt	nt	nt	-2	5.3	-0.2	-4	-13
(further entries)
SMILES	B2AR ag	Calb FLC	Ecoli rRNA inh	Ecoli rRNA inh OD600	Ecoli rRNA inh RFP	ALR inh	LANA-H2B inh	A1 inh	Beta cell apopt	T cruzi repl
COC(=O)c1[nH]c2cc(OC)c(OC)cc2c1NC(=O)Oc1ccccc1	-7	1	nt	nt	nt	14	3.3	-0.1	6	-13
CC1(c2nnc(Cc3ccccc3)o2)CC(c2ccc([N+](=O)[O-])cc2)=NO1 (configuration not stated)	2	18	0	-3	-4.8	-4	-2.7	0.1	1	43
Cc1c(Cl)cccc1NC(=O)C(=O)NNS(=O)(=O)c1ccc(F)cc1	3	0	nt	nt	nt	9	-4.5	1.3	-8	0
Cc1cc([N+](=O)[O-])cnc1NC(C)c1ccccc1 (configuration not stated)	5	12	nt	nt	nt	-9	-4.2	2.0	1	3
CC1=CC(C)(C)N(C)C(=O)N1c1ccc(Cl)cc1	-6	-3	nt	nt	nt	1	5.9	0.9	4	-31
CCc1ccccc1C1=CC(=O)C[C@H](c2ccc(OC)cc2)C1	12	nt	-13	-31	-5.0	0	-1.1	-1.2	-6	nt
COc1cccc(-c2cc3c(-n4cccc4)ncnc3o2)c1	-6	0	nt	nt	nt	3	0.2	0.8	6	17

Screening results deposited in PubChem by several laboratories.
